HPGD inh – blocks human HPGD enzyme activity | 150,000 tested, 4.3% active | purified HPGD, NADH fluorescence kinetic, PGE2 substrate | P15428 | Potency, µM, for inactives: top-dose activity change, negative = inhibition, hits mostly inhibitors | AID 894; active = well fitted inhibition curve with a large enough effect (not every such curve was filed as active); inconclusive = small, poorly fitted or top-dose-only effect, or another doubt; inactive = no such curve, though single readings can be large or run the other way;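 note: top concentration of the series not given in the record; plate controls included wells without enzyme; inactives centre near -10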
Target sequence (P15428 whole entry, looked up): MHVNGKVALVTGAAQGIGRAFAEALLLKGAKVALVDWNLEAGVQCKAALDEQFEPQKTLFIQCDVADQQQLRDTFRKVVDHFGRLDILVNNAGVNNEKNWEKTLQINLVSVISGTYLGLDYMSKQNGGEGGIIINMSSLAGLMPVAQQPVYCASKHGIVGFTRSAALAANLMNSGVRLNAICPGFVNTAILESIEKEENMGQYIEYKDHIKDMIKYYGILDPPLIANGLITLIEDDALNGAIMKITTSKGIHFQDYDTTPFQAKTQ
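20 nM HPGD preincubated 15 min at room temperature with compound in 50 mM Tris-HCl pH 8, 0.01% Tween 20. Started with 1 mM NAD+ and 30 uM prostaglandin E2; NADH fluorescence (360/450 nm) read 5 times over 30-s intervals, last minus first.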
Starred values were filed as active, the others as inactive; ? = inconclusive; & = joins results of further samples. % is set by controls: 0 for no effect and ±100 for the full control effect; potency is the fitted concentration of half-maximal effect.

SMILES | HPGD inh
COC(=O)C(C)NC(=O)C12CC3CC(CC(C3)C1)C2 (stereo not given) | -1.2%
Cc1ccccc1NC(=O)c1ccc(CN2CCC(Cc3ccccc3)CC2)cc1 | 6.2%
CC(C)=CCc1c2c(c3occ(-c4ccc(O)c(O)c4)c(=O)c3c1O)C=CC(C)(C)O2 | -4.5%&-3.4%
COCCCNC(=O)COc1ccc(S(=O)(=O)Nc2ccccc2)cc1 | -9.7%
Cn1c(=O)c2cc(S(=O)(=O)NCCC(=O)NCCc3ccc(Cl)cc3)ccc2n(C)c1=O | -13.7%
COc1ccc(CCn2c(NCCCN3CCOCC3)nc3c2c(=O)[nH]c(=O)n3C)cc1 | -0.9%
O=c1[nH]c2ccc(Cl)cc2c(-c2ccccc2)c1SC(=S)N1CCOCC1 | 20µM*
CC(C)NS(=O)(=O)c1ccc(CCC(=O)NCc2ccco2)cc1 | -6.6%
COc1cccc(Cn2c(=O)c(-c3cccs3)nc3cnc(Nc4cccc(OC)c4)nc32)c1 | -0.3%
COc1ccc(OC)c(C(C)NC(=O)c2ccco2)c1 (stereo not given) | -0.3%
O=C(Nc1ccccc1SCC1CSc2nc3ccccc3c(=O)n21)c1ccccc1 (stereo not given) | -19.3%
Cc1cc(NC(=O)C2CC(=O)N(c3ccccc3)C2)no1 (stereo not given) | -5.1%
COc1ccc(C)cc1S(=O)(=O)N1CCN(Cc2ccccc2)CC1 | -5.6%
O=C(O)CN=C(NS(=O)(=O)c1ccccc1)c1ccccc1 | -14.1%
CC1CC(O)(Cc2ccccc2)C(C)CN1C (stereo not given) | -5.8%
CCNC(=S)N/N=C/c1ccc(OCCOc2ccccc2C)cc1 | -3.5%
COC(=O)[C@@H](NC(=O)NCc1ccccc1Cl)C(C)C | -4.1%
O=P1(O)Oc2c(-c3ccccc3)cc3ccccc3c2-c2c(c(-c3ccccc3)cc3ccccc23)O1 | -7.8%
O=C(COC(=O)c1cnc(Cl)c(Cl)c1)NCc1ccc2c(c1)OCO2 | -3.2%
Cc1ccccc1NS(=O)(=O)c1cc(C(=O)NCc2ccco2)ccc1C | 2.0%
O=C(O)c1cc(=O)c2ccccc2[nH]1 | -27.1%&-4.6%
CCN(CCO)C(=S)Nc1cc(C(=O)OC)ccc1C(=O)OC | -1.3%
O=C(COC(=O)c1ccccc1)Nc1cc(Cl)ccc1Oc1ccccc1 | -8.2%
C/C(=N\S(=O)(=O)c1ccc(C)cc1)N1CCN(S(=O)(=O)c2ccccc2)C1C(C)C (stereo not given) | -0.8%
Cc1cc(C(F)(F)F)n2nc(C(=O)O)c(Cl)c2n1 | -11.0%
N#Cc1sc2nc(-c3cccs3)cc(-c3ccccc3)c2c1N | ?
S=C(NCc1ccco1)Nc1cccc(Cl)c1 | 11.2µM*
COc1cc(NC(=O)CN(c2cc(C)cc(C)c2)S(=O)(=O)c2c(C)noc2C)cc(OC)c1 | -5.7%
COc1ccc(NC(=O)C2CCN(C(=O)NC3CCCCC3)CC2)c(OC)c1 | 1.8%
CCOC(=O)CN1CC23C=CC(O2)C(C(=O)Nc2ccc(C(C)=O)cc2)C3C1=O (stereo not given) | -3.7%
Cc1cc(=O)[nH]c(SCC(=O)Nc2ccc(Br)cn2)n1 | -2.2%
Cc1cccn2c(=O)c3cc(C(=O)NC(C)C)c(=N)n(Cc4ccncc4)c3nc12 | ?
CCOC(=O)Oc1ccc2c(=O)c(Oc3cccc(C)c3)coc2c1 | -4.4%
Cc1ccc2[nH]c(C)c(CCNC(=O)C3CCCCC3C(=O)OCC(F)(F)F)c2c1 (stereo not given) | -9.8%
COCCn1c(C)cc(C2=NNC(=Nc3ccc(OC)cc3)SC2)c1C | -15.7%
CCC(C)NC(=O)CNS(=O)(=O)c1ccc(C)cc1 (stereo not given) | -3.5%
O=C(O)C12C[C@H]3C[C@@H](C1)CC(n1ncc(N4CCN(c5ccccc5)CC4)c(Cl)c1=O)(C3)C2 | -15.6%
Cc1ccc(N(C(=O)Cn2nnc3ccccc32)C(C(=O)NC2CCCCC2)c2cn(C)nc2C)cc1 (stereo not given) | -7.9%
CSc1c(C#N)c(N)c(C#N)c2c1COC(C)(C)C2 | ?
Cc1nnc(SCC(=O)Nc2ccc(-c3nc4ccccc4s3)cc2)s1 | -4.0%
CCCN1C2CCCC1CC(NC(=O)c1cc(OC)c(OC)c(OC)c1)C2 (stereo not given) | -5.5%
O=C(NC(=S)Nc1ccccc1N1CCOCC1)c1ccc(-c2cc(Cl)ccc2Cl)o1 | -16.4%
CCOC(=O)c1cnn(-c2cccc(Cl)c2)c1N | -14.2%
Cc1cc(NC(=O)c2ccccc2F)on1 | -17.7%
CCCc1c(O)nc(SCCN(CCC)CCC)[nH]c1=O | -8.2%

The closing 3 records of the part before lead into the next.
SMILES | HPGD inh
CCOC(=O)c1cnn(-c2cccc(Cl)c2)c1N | -14.2%
Cc1cc(NC(=O)c2ccccc2F)on1 | -17.7%
CCCc1c(O)nc(SCCN(CCC)CCC)[nH]c1=O | -8.2%
CC(=O)c1c(NCc2ccccc2)nc(=O)n(-c2ccccc2)c1C | -21.4%
CCC(Sc1nc2cc3c(cc2c(=O)n1Cc1ccco1)OCO3)C(=O)Nc1ccccc1OC (stereo not given) | -15.5%
Cc1nc(SCC(=O)Nc2cc(C)on2)c2c(=O)n(C)c(=O)n(C)c2n1 | -1.5%
COc1cccc(C(=O)Cn2c(N3CCOCC3)nc3c2c(=O)n(C)c(=O)n3C)c1 | -7.6%
Cc1cccc(N2CCN(C(=O)CSc3ccsc3[N+](=O)[O-])CC2C)c1 (stereo not given) | -21.3%
CCn1c(-c2ccco2)nc2ccccc21 | ?
NCCCCC(=O)O | -13.3%&-2.1%
O=C1CCNc2cc3ccccc3cc21 | ?
Cc1nc2ccccn2c1C(=O)N/N=C/c1ccc2c(c1)OCO2 | -28.8%
O=C(N/N=C/c1c[nH]c2ccccc12)C1COc2ccccc2O1 (stereo not given) | -23.9%
CCCCOCCCNC(=O)c1ccc2c(c1)OCO2 | 25.1µM*
c1ccc(N2CCN(c3ccccc3)C2c2cccnc2)cc1 | 2.4%
N#Cc1cc2cc3c(cc2nc1N1CCCCC1)OCCO3 | ?
CC(C)C(NC(=O)COc1ccccc1)C(=O)O (stereo not given) | -8.0%
CCNC(=O)N(C(=O)NCC)n1c(C)nnc1C | -10.3%
COC(=O)Cn1nc(-c2ccc(C)c(S(=O)(=O)N(C)C)c2)c2ccccc2c1=O | -11.4%
COC(=O)CCC(=O)N1CCOCCOCCN(C(=O)CCC(=O)OC)CCOCCOCC1 | -5.3%
Clc1ccc2c(NCc3ccccn3)ncnc2c1 | ?
CC(C)C(NC(=O)OCc1ccccc1)C(=O)OCC(=O)NCc1ccco1 (stereo not given) | -22.8%
c1ccc(-c2nc(NCc3cccnc3)c3oc4ccccc4c3n2)cc1 | -16.0%
Cc1cc(C)n(-c2ccc(C)c(Cl)c2)n1 | -3.1%
CSc1nc(-c2ccc(Cl)cc2)nn1C(=O)c1ccco1 | -14.9%
Cc1ccc(C(=O)Nc2ccc3c(c2)nc2n3CCSC2)cc1 | -12.0%
O=C(CSc1ccc2c(c1)OCCO2)Nc1ncc(Cl)cc1Cl | -8.2%
NNC(=O)CN1C(c2ccccc2Br)=Nc2ccc(Br)cc2C1c1ccccc1 (stereo not given) | ?
CC[n+]1c(/C=C/Nc2ccccc2)sc2ccccc21 | -6.6%
N=C1C(c2nc3ccccc3[nH]2)=C(O)CN1c1ccc(CC(=O)O)cc1 | -21.8%
COc1cc(-c2nnc(SCC3(c4ccccc4)OCCO3)o2)cc(OC)c1OC | -25.3%
Cc1ccc(CNC(=O)CCCn2c(=O)c3ccccc3n(CC(=O)NC3CCCC3)c2=O)cc1 | 0.9%
CC(C)N(Cc1nc(-c2ccc(Cl)cc2)no1)C(=O)CCCN1C(=O)c2ccccc2C1=O | -10.5%

Pulled one by one from the list above, 7 records:
SMILES | HPGD inh
Clc1ccc2c(NCc3ccccn3)ncnc2c1 | ?
CSc1nc(-c2ccc(Cl)cc2)nn1C(=O)c1ccco1 | -14.9%
CC[n+]1c(/C=C/Nc2ccccc2)sc2ccccc21 | -6.6%
CC(C)C(NC(=O)OCc1ccccc1)C(=O)OCC(=O)NCc1ccco1 (stereo not given) | -22.8%
CC(C)N(Cc1nc(-c2ccc(Cl)cc2)no1)C(=O)CCCN1C(=O)c2ccccc2C1=O | -10.5%
Cc1cc(C)n(-c2ccc(C)c(Cl)c2)n1 | -3.1%
Cc1ccc(CNC(=O)CCCn2c(=O)c3ccccc3n(CC(=O)NC3CCCC3)c2=O)cc1 | 0.9%

Additional results
SMILES | HPGD inh
CCOC(=O)CC(=O)CSc1nc2c(C)c(C)ccc2cc1C | -10.3%
Cc1oc(C(=O)O)cc1COc1ccc2c3c(c(=O)oc2c1C)CCCC3 | ?
CN(C)/C=C1\N=C(c2ccc(Cl)cc2Cl)OC1=O | -6.5%
O=C(CCC(=O)OCC(=O)c1ccc(Br)cc1)Nc1ccc(Br)c2cccnc12 | ?
COC(=O)C1=C(N)Oc2cc(C)n(Cc3ccco3)c(=O)c2C1c1cccc(Cl)c1 (stereo not given) | -18.8%
CC(C)C[C@H](NC(=O)Nc1ccc(S(N)(=O)=O)cc1)C(=O)O | -14.4%
Cc1c(C=NCCOCc2ccccc2)cnn1C | -7.5%
Cc1nc2ccccn2c1C(=O)NCc1cccnc1 | -5.0%
O=C1CSC(c2cn(-c3ccccc3)nc2-c2ccc3c(c2)OCCO3)N1CCN1CCOCC1 (stereo not given) | ?
C(=N/Nc1ccccn1)/c1cccnc1 | -1.2%
CCOC(=O)c1[nH]c2ccc(OC)cc2c1NC(=S)N1CCN(c2ccc(F)cc2)CC1 | -7.4%
Cc1ccc(-c2nnn(CC(=O)NCC3CC3)n2)o1 | -10.0%
N#CCCSc1ncnc2c1oc1ccccc12 | -26.8%
COc1ccc(C(c2nnnn2CS(=O)(=O)c2ccc(C)cc2)N2CCN(c3ncccn3)CC2)cc1 (stereo not given) | -6.0%
Cc1ccccc1-c1nc(-c2ccc(NC(=O)c3ccc(Br)o3)cc2)no1 | ?
Cc1nnc(OCc2nc3ccccc3n2C)c2ccccc12 | -12.4%
COc1ccc(C(=O)NNC2=CC(=O)CC(C)(C)C2)cc1OC | ?
O=C(NCCCCCCNC(=O)ON=C1CCCCC1)ON=C1CCCCC1 | -21.6%
CC(=O)Nc1ccc(NS(=O)(=O)c2cccc3ccccc23)cc1 | -10.6%
COCCSc1nnc(NC(=O)C2CCCO2)s1 (stereo not given) | -7.8%
C/C(=N\NC(=O)CSc1nc2ccccc2c(=O)n1-c1ccccc1C)c1cccs1 | -16.7%
Cc1c(C#N)c2ccccc2n1CC(=O)NCc1cccnc1 | 2.3%
O=C1C=C(NCc2ccc(Cl)cc2)CC(c2ccco2)C1 (stereo not given) | -16.7%
COc1ccc(S(=O)(=O)N(C)CC(=O)Nc2ccccc2OC)cc1 | -2.5%
O=C(Nc1ccc(Cl)cc1)Nc1nnc(Cc2ccc([N+](=O)[O-])cc2)s1 | -12.9%
COc1ccc(S(=O)(=O)NC(CC(=O)NCc2ccccc2OC)c2ccco2)cc1 (stereo not given) | -5.3%
Nc1ccc(C(=O)C[C@H](N)C(=O)O)cc1O | -4.8%
CCCCC1=CC2=CC(=O)C(C)(OC(=O)CC)C(=O)C2=CN1CCc1c[nH]c2ccccc12 (stereo not given) | -1.6%
COc1cccc(-c2ccc(C#N)c(OC(=O)c3ccc(Cl)cc3)n2)c1 | ?
CCOC(=O)c1c(NC(=O)CN2C(=O)c3ccccc3C2=O)sc(Cc2ccc3c(c2)OCO3)c1C | -8.0%
CC1Cc2ccccc2N1C(=O)CSc1nnc2sc3ccccc3n12 (stereo not given) | -4.0%
CC1=Nn2c(nnc2-c2cccs2)SC1 | -6.2%
COc1ccc(-c2cn(-c3ccc(C)cc3)c(=O)n2CC(=O)Nc2ccc(OC)cc2OC)cc1 | -23.1%
COc1ccc(NC(=O)C(NC(=O)Cc2cccs2)c2ccccc2)cc1 (stereo not given) | -6.2%
CCOc1ccc(Oc2ccc(C(F)(F)F)cc2N)cc1 | -4.8%
CC1(C(=O)NC2CCCCC2)CCC(=O)N1Cc1cccnc1 (stereo not given) | -9.0%
COCc1nnc(NC(=O)CCC2CCCCC2)s1 | -4.1%
O=C(O)c1cc(-c2ccncc2)nc2ccccc12 | -8.0%
Cc1ccc(S(=O)(=O)NCCc2ccncc2)cc1 | 2.0%
Cc1ccc(C)c(-n2c(-c3csc(C)c3C)n[nH]c2=S)c1 | ?
COc1ccc(C(C(=O)NC2CCCCC2)N(CC2CCCO2)C(=O)CNC(=O)c2ccco2)cc1 (stereo not given) | -6.7%
CN(C)c1nc(-c2ccoc2)nc2ccccc12 | -1.4%
COc1ccc(C(=O)NC(=S)N2CCCCC2)cc1 | 17.8µM*
CCOC(=O)NC1(NCC(C)C)Oc2ccccc2O1 | -6.0%
O=C(c1ccccc1)N1CCN(C(=O)c2cc3ccccc3o2)CC1 | -11.0%
Cc1ccc(NC(=O)C(=O)NC2CCCCC2)cc1 | -2.9%
Cc1ccc2[nH]c3c(=O)n(Cc4ccncc4)cnc3c2c1 | ?
CCN(CC)c1ccc(/C=N/NS(=O)(=O)c2cccc([N+](=O)[O-])c2)cc1 | -24.0%
NS(=O)(=O)c1ccc(CCN=Cc2ccccc2O)cc1 | 0.5%
CCn1c(SCC(=O)OCc2ccccc2)nnc1-c1ccco1 | -8.1%
O=C(Nc1ccc(S(=O)(=O)NCc2cccnc2)cc1)c1ccco1 | -14.5%
CCc1cc(OCCOCCN(C)C)ccc1Cl | -1.9%
Cc1cc(C)nc(SCc2nnc(SCC(=O)OC3CCCCC3)o2)n1 | -8.6%
COc1ccc(/C=N/NC(=O)c2ccccc2)cc1CN1CCN(c2ccc(F)cc2)CC1 | -13.0%
CCc1ccc2[nH]c(=O)c(CN(Cc3nnnn3C3CCCC3)C3CCCCC3)cc2c1 | -19.0%

Compound activity as filed in PubChem.

Not all compounds are listed; rates above refer to the full screens.
